Assay outcomes deposited in PubChem by National Center for Advancing Translational Sciences (NCATS).
Cruzain inh Det = qHTS Assay for Promiscuous and Specific Inhibitors of Cruzain (with detergent). Cruzipain (Trypanosoma cruzi), P25779. purified cruzain, Z-FR-AMC fluorescence, 0.01% Triton. Potency, µM, without a hit: max response, negative = inhibition, usual class: inhibitors. 200,000 compounds, 0.43% hits. AID 1478, 2009;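 further: plate controls were neutral wells for no effect and buffer without enzyme for full effect; nearly all actives have a fitted effect of over 40% in size; top concentration of the series not given in the record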
Target sequence (P25779 123-467 limits assumed): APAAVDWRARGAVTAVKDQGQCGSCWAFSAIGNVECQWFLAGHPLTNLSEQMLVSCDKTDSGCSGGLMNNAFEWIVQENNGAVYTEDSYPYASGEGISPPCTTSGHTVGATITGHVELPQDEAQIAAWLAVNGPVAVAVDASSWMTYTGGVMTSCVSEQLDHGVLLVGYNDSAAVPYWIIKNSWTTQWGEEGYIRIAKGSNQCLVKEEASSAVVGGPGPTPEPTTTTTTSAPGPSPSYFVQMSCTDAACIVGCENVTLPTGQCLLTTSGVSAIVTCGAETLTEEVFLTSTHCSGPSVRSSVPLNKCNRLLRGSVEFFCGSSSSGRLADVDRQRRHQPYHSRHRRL
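Detergent-containing run (0.01% Triton X-100) in acetate buffer pH 5.5 with 5 mM DTT: enzyme at 1.5 nM final, 15 min compound preincubation at room temperature, then 2 uM Z-FR-AMC substrate. Activity taken as 60 s fluorescence increase at 360/450 nm.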
Cruzain noTriton = qHTS Assay for Promiscuous and Specific Inhibitors of Cruzain (without detergent); Cruzipain (Trypanosoma cruzi), P25779; purified cruzain, Z-FR-AMC fluorescence, no detergent; Potency, µM, for the others: max response, negative = inhibition, actives largely listed as inhibitors; 200,000 compounds, 2.3% hits; AID 1476, 2009;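 further: plate controls were enzyme without inhibitor for no effect and buffer without enzyme for full effect; nearly all actives have a fitted effect of over 40% in size; top concentration of the series not given in the record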
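Purified cruzain at 1.5 nM, pre-incubated 15 min with compound at room temperature in 100 mM sodium acetate pH 5.5, 5 mM DTT, 0.00005% Triton X-100. Reaction started with 2 uM Z-FR-AMC; AMC fluorescence increase over 60 s gives rate.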
LASV entry inh = qHTS for Inhibitors of binding or entry into cells for Lassa Virus; Lassa virus pseudotype entry inhibition, cell reporter; control for the full effect not named in the record; Potency, µM (doses to about 37.9 µM), for inactives: at the highest dose activity change, negative = inhibition, usual class: inhibitors; 300,000 compounds, 1.2% hits; AID 540256, 2011; active means well fitted inhibition curve with a large enough effect; inconclusive means small, poorly fitted or top-dose-only effect, or effect the other way; inactive means flat fitted curve, though single readings scatter; tested in HEK293 cells; further: on the % scale 0 is the no-effect control and ±100 the full control effect; nearly all actives have a fitted effect of over 50% in size; luciferase read-out
SARS PLP yeast = qHTS of Yeast-based Assay for SARS-CoV PLP | S. cerevisiae expressing SARS-CoV PLpro, growth rescue; control for the full effect not named in the record | Potency, µM (titrated, usually from 32.9 µM), inactives show at the highest dose activity, positive = growth rescue | 330,000 compounds, 0.19% hits; active means well fitted rising curve with a large enough effect; inconclusive means small, poorly fitted or top-dose-only effect; inactive means no such curve, though single readings can be large or run the other way; further: 0% is about no effect; nearly all actives have a fitted effect of over 55% in size; growth read by luminescence after 48 h
RE007 growth inh = qHTS Assay for Inhibitors of the HIV-1 protein Vpr; 360,000 compounds, 0.21% hits; S. pombe RE007 Vpr strain, BacTiter-Glo ATP luminescence, 24 h; control for the full effect not named in the record; Potency, µM (top dose mostly 92.2 µM), for inactives: top-dose activity change, negative = less growth; active = well fitted falling curve with a large enough effect; inconclusive = small, poorly fitted or top-dose-only effect; inactive = no such curve, though single readings can be large or run the other way;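 further: on the % scale 0 is the no-effect control and ±100 the full control effect; nearly all actives have a fitted effect of over 50% in size; the assay follows cell death caused by Vpr and the record does not say whether a fall means rescue or toxicity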
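Fission yeast RE007 carrying one integrated HIV-1 vpr copy, seeded at OD 0.01 in PMG+AL medium with 23 nL pinned compound. Grown 24 h at 30 degrees; viability read by BacTiter-Glo luminescence after 5 min.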
MARV entry inh = qHTS for inhibitors of binding or entry into cells for Marburg Virus | Marburg virus pseudotyped entry inhibition, cell reporter; control for the full effect not named in the record; about a third of the inactives were read at about 46 µM | Potency, µM (doses to about 37.8 µM), without a hit: at the top dose activity change, negative = inhibition, usual class: inhibitors | 300,000 compounds, 1.8% hits | AID 540276, 2011; active = well fitted inhibition curve with a large enough effect; inconclusive = small, poorly fitted or top-dose-only effect, or effect the other way; inactive = flat fitted curve, though single readings scatter; tested in HEK293 cells; about a fifth of its hits are not listed in these tables; further: on the % scale 0 is the no-effect control and ±100 the full control effect; luciferase read-out
StopGo reporter = High Throughput Screening for Foot and Mouth Disease Virus Antivirals; AID 1159524, 2015; Potency, µM (titrated, usually from 57.9 µM), for the others: top-dose signal change, negative = less light; human cells with a luciferase reporter of 2A StopGo recoding; control for the full effect not named in the record; 410,000 compounds, 1.2% hits; active = well fitted falling curve with a large enough effect; inconclusive = small, poorly fitted or top-dose-only effect; inactive = no such curve, though single readings can be large or run the other way; tested in HEK293T cells; further: on the % scale 0 is the no-effect control and ±100 the full control effect; nearly all actives have a fitted effect of over 45% in size; luciferase light after 4 h
NS1 function inh = qHTS Assay for Inhibitors of Influenza NS1 Protein Function; S. cerevisiae slowed by influenza A NS1, growth recovery by OD600; Potency, µM (doses to about 46.1 µM), for inactives: top-dose activity, positive = more growth; 270,000 compounds, 0.4% hits; active means well fitted rising curve with a large enough effect; inconclusive means small, poorly fitted or top-dose-only effect; inactive means no such curve, though single readings can be large or run the other way; further: nearly all actives have a fitted effect of over 50% in size
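S. cerevisiae expressing influenza A NS1, grown in glucose, washed, then diluted 1:100 into pH 6.0 -URA galactose medium with 23 nl compound. Growth recovery read as OD600; NS1-free strain serves as control.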
Numbers without * were called inactive; ? = inconclusive; / = not tested or not shown; & = joins results of further samples; [ ] = dose if it differs, or a comment. Unless noted, the call rests on the fitted dose curve; in most records, active means well fitted curve in the direction sought with a large enough effect; inconclusive means small, poorly fitted or top-dose-only effect, or another doubt; inactive means no such curve, though single readings can be large; an effect the other way counts as inactive or inconclusive. Potency means the concentration at half of the fitted maximal effect.

Screens in order – Cruzain inh Det	NS1 function inh	SARS PLP yeast	MARV entry inh	StopGo reporter	Cruzain noTriton	LASV entry inh	RE007 growth inh
Cc1ccc(OCC(O)C(C)NC(C)C)c2c1CCC2 (stereo not given)
    -4.1%	3%	/	16µM*	-15%	9%	/	/
CCOc1cccc(C(=O)NC(=S)Nc2cccc(C)c2)c1
    -7.6%	13%	?	?	-2%	-15%	?	-27%
CCCCCCN(C(=O)CCCCCN1C(=O)NC(c2ccc(C(C)(C)C)cc2)C(C(=O)OCc2ccccc2)=C1C)C(C(=O)NCCCC)c1ccc(OCC(=O)OC)c(C(=O)OC)c1 (stereo not given)
    -2.9%	8.9µM*	0%	/	/	7%	/	/
Cc1cc(Nc2c(C)cccc2C)n2nc(C)nc2n1
    3.4%	-2%	-8%	-4%	-2%	-2%	/	5%
O=C(NCc1csc(-c2cccs2)n1)Nc1ccc(F)cc1F
    /	-1%	-1%	/	34%[activator]	/	/	0%
Cc1c(C(=O)N(Cc2cccc(Br)c2)C2CCS(=O)(=O)C2)oc2ccccc12 (stereo not given)
    /	-12%	?	/	?	/	/	3%
C=CCOc1c(Br)cc(/C=C(\C#N)C(N)=O)cc1OC
    /	-30%	-1%	/	-18%	/	/	4%
CC1=NN(C(=O)c2nn(C)cc2Br)C(O)(C(F)(F)F)C1 (stereo not given)
    -1.9%	-2%	-2%	13%	-13%	10%	4%	-11%
CCc1cc(=O)oc2c(C)c(OCC(=O)NCCCn3ccnc3)ccc12
    /	-6%	-4%	/	-2%	/	/	9%
CC1(C)C2CCC1(CS(=O)(=O)Nc1ccc(S(=O)(=O)N3CCCC3)cc1)C(=O)C2 (stereo not given)
    1.3%	-12%	-6%	-27%	-21%	-3%	13%	4%
Cc1ccc2c(c1)CCCN2C(=O)c1ccoc1C
    5.9%	-7%	-1%	2%	7%	-6%	-28%	22%
COc1c(Cl)cc(Cl)cc1CNCCSc1nnnn1C
    -0.5%	/	/	3%[46.1 µM]	0%	2%	3%[46.1 µM]	/
O=C(Nc1ccc(Cl)cc1)c1ccc(S(=O)(=O)N2CCOCC2)cc1
    /	-8%	-1%	?	9%	/	-14%[46.1 µM]	9%
Cc1ccc(CNC(=O)C2CCC(CNc3c(N4CCOCC4)c(=O)c3=O)CC2)cc1 (stereo not given)
    2.6%	6%	-13%	/	-6%	-9%	/	-4%
COc1ccccc1CNC(=O)CCS(=O)(=O)Cc1ccc(C)cc1
    /	1%	-2%	8%[46.1 µM]	-10%	/	16%[46.1 µM]	-2%
CCOc1ccc(CCNC(=O)Cn2cccc2C(=O)c2ccccc2C)cc1OCC
    -3.8%	-12%	14%	1%	-11%	?	?	-13%
Cc1ccc(NC(=O)COC(=O)c2cc(Cl)cc(Cl)c2)c(Br)c1
    0.7%	-4%	24%	-13%	-4%	?	-3%	/
Cc1ccccc1N(C(=O)c1snc(C(N)=O)c1N)C(C(=O)NCC1CCCO1)c1ccc(F)cc1 (stereo not given)
    /	7%	-7%	6%[46.1 µM]	-9%	/	-39%	1%
Cc1ccc2nc(-c3cccc(NC(=O)c4ccc(Br)o4)c3)oc2c1
    3.0%	/	/	-1%[46.1 µM]	46%[activator]	24%	17%[46.1 µM]	/
CC1CN(c2ccc(NC(=O)c3ccco3)cc2C(=O)O)CC(C)O1 (stereo not given)
    /	-2%	1%	15%[46.1 µM]	-6%	/	-15%[46.1 µM]	14%
CCN1CCN(Cc2c(O)ccc3c(C)c(-c4ccc(OC)cc4)c(=O)oc23)CC1
    -1.8%	/	/	/	-16%	-11%	0%[46.1 µM]	/
O=C(Nc1ccc(F)cc1)NC1CCCc2ccccc21 (stereo not given)
    /	3%	2%	/	-13%	/	/	3%
Nc1nc(Nc2ccccc2F)nc(NCc2ccccc2)c1[N+](=O)[O-]
    /	-16%	-1%	/	-2%	/	/	11%
CC(CNS(=O)(=O)c1ccccc1)Sc1nncn1C (stereo not given)
    /	4%	0%	1%[46.1 µM]	16%	/	14%[46.1 µM]	-5%
CCOC(=O)N1CCN(C2=C(NS(=O)(=O)c3ccc(C)cc3)C(=O)c3ccccc3C2=O)CC1
    /	18%	-3%	/	-20%	/	/	-14%
CCOc1ccccc1NC(=O)c1ccc2c(c1)C(=O)N(CC(C)C)C2=O
    /	3%	-4%	-1%	-4%	/	3%	2%
Cc1ccc(CNC(=O)CCCn2nc(C)n3c(cc4sccc43)c2=O)cc1
    -1.5%	/	/	8%[46.1 µM]	2%	2%	/	/
O=C(CSCc1ccc(Cl)cc1)Nc1ccc(Br)cc1C(=O)O
    /	0%	-2%	-6%[46.1 µM]	-17%	/	2%[46.1 µM]	15%
Cc1ccsc1CN(C(=O)COc1ccc(Br)cc1)C1CCS(=O)(=O)C1 (stereo not given)
    -5.3%	/	/	-20%[46.1 µM]	16%	?	-11%[46.1 µM]	/
O=C(NCCSCc1ccccc1)c1ccc(F)cc1
    -2.6%	-40%	-7%	-50%	10%	-5%	10%	2%

Given bar-delimited: 5 of the compounds above
smiles | Cruzain inh Det | NS1 function inh | SARS PLP yeast | MARV entry inh | StopGo reporter | Cruzain noTriton | LASV entry inh | RE007 growth inh
Nc1nc(Nc2ccccc2F)nc(NCc2ccccc2)c1[N+](=O)[O-] | / | -16% | -1% | / | -2% | / | / | 11%
CC(CNS(=O)(=O)c1ccccc1)Sc1nncn1C (stereo not given) | / | 4% | 0% | 1%[46.1 µM] | 16% | / | 14%[46.1 µM] | -5%
CCOC(=O)N1CCN(C2=C(NS(=O)(=O)c3ccc(C)cc3)C(=O)c3ccccc3C2=O)CC1 | / | 18% | -3% | / | -20% | / | / | -14%
CCOc1ccccc1NC(=O)c1ccc2c(c1)C(=O)N(CC(C)C)C2=O | / | 3% | -4% | -1% | -4% | / | 3% | 2%
Cc1ccc(CNC(=O)CCCn2nc(C)n3c(cc4sccc43)c2=O)cc1 | -1.5% | / | / | 8%[46.1 µM] | 2% | 2% | / | /

New compounds follow:
Screens in order – Cruzain inh Det	NS1 function inh	SARS PLP yeast	MARV entry inh	StopGo reporter	Cruzain noTriton	LASV entry inh	RE007 growth inh
Cn1c(O)c(N=NC(=O)CNC(=O)c2ccco2)c2ccccc21
    -4.7%	-4%	15%	/	-3%	-5%	/	-3%
COc1ccc(CN(C(=O)c2oc3cc(C)ccc3c2C)C2CCS(=O)(=O)C2)cc1OC (stereo not given)
    /	2%	4%	/	?	/	/	-8%
Cc1ccccc1NC(=O)CSc1ccc(-c2ccccn2)nn1
    -3.5%	-45%	?	?	-11%&-8%	5%	?	-27%
Brc1cccc(C2CC(c3ccccc3)n3nnnc3N2)c1 (stereo not given)
    -7.2%	-4%	-4%	7%	0%	-2%	-19%	5%
Cc1cc(OCCCC(=O)NNC(=O)c2ccncc2)ccc1Cl
    /	4%	-5%	16%[46.1 µM]	-5%	/	20%[46.1 µM]	-7%
CCN(CC)CCNC(=O)Nc1ccc2c(c1)N(Cc1ccccc1)C(=O)c1ccccc1S2
    -3.0%	/	/	?	-15%	-2%	?	/
CCN(CCn1cccn1)C(=O)C1CCC(=O)N(CC2CCCCC2)C1 (stereo not given)
    /	-1%	2%	-23%[46.1 µM]	-2%	/	5%[46.1 µM]	-9%
O=C(N/N=C\c1ccc(Br)o1)C1COc2ccccc2O1 (stereo not given)
    /	-7%	-1%	9%	-24%	/	0%	-11%
COc1cc(CCC(=O)OCC(=O)Nc2c(C)cccc2C(C)C)cc(OC)c1OC
    -1.1%	0%	-22%	16%	-22%	16%	12%	2%
NC(=O)c1sc2nc(N3CCCCC3)c3c(c2c1N)CCCC3
    -15%	11%	1%	?	20%	-19%	-7%	16%
O=C(COC(=O)Cc1c(F)cccc1Cl)NC(=O)Nc1ccccc1F
    /	/	-8%	?	-2%	/	-2%	13%
O=C(C1CCN(c2nnnn2-c2ccccc2)CC1)N1CCN(c2ccccc2)CC1
    0.0%	-8%	0%	8%	-13%	10%	-16%	16%
Cc1ccc(-c2csc3ncnc(NCCC(=O)O)c23)cc1C
    /	13%	2%	3%[46.1 µM]	-17%	/	13%[46.1 µM]	-18%
CCc1ccccc1N(CC)C(=O)c1c(C)oc2ncnc(N3CCOCC3)c12
    -1.7%	/	/	/	-8%	-9%	-1%[46.1 µM]	/
CCC(=O)Nc1cccc(C(=O)OC)c1
    /	-2%	0%	4%[46.1 µM]	8%	/	6%[46.1 µM]	16%
CCOc1ccc(S(=O)(=O)N2CCN(C(=O)c3oc4ccc(OC)cc4c3C)CC2)cc1
    /	/	-3%	?	?	/	?	1%
CCCCC(=O)Nc1ccc(NC(=O)c2cccnc2)cn1
    1.4%	1%	2%	-7%	5%	-4%	22%	-3%
COc1cccc(CNC(=O)c2cccc(S(=O)(=O)N3CCN(Cc4ccccc4)CC3)c2)c1
    /	/	/	?	-21%	/	7%	6%
CCOc1cc(CNc2ccccc2SC)ccc1O
    -1.6%	2%	1%	-6%	/	0%	/	/
CC(=O)Nc1sc(C)c(C)c1C(=O)Nc1ccc(C)cc1
    -1.1%	6%	-2%	25%	/	2%	13%	-4%
COc1ccccc1N1CCN(C(=O)Cn2ncc3c2-c2cc(C)ccc2OC3)CC1
    0.1%	/	/	2%[46.1 µM]	-22%	?	/	/
